Screening data from PubChem.
LT uptake inh: anthrax lethal toxin internalization inhibition; Cells, anthrax lethal toxin internalization, FRET ratio (460/530); Potency, µM (doses to about 40 µM), without a hit: at the highest dose activity change, negative = inhibition, usual class: inhibitors; 70,000 compounds, 0.67% hits; active = well fitted falling ratio curve with the 530 nm signal flat; inconclusive = other ratio curves, or a change in one channel alone; inactive = flat curves in the ratio and both channels; the % refers to the ratio; note: % is set by controls: 0 for no effect and ±100 for the full control effect; nearly all actives have a fitted effect of over 50% in size; tested in ME-180 cells; beta-lactamase reporter
SmPrx2 inh: Schistosoma mansoni Prx2 inhibition. S. mansoni Prx2 activity coupled to TGR/GSH (TGR is thioredoxin glutathione reductase), NADPH fluorescence loss, qHTS; some inactives read as strong as hits. Potency, µM. 65,000 compounds, 0.07% hits. AID 448; active means full or partial inhibition curve with a strong effect at the top dose; inconclusive means weaker partial or single-point curve; inactive means no accepted curve; note: series up to 57 µM; many of its hits are not listed in these tables
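Activity is read as the drop in NADPH fluorescence (365/450 nm), recorded every 30 sec for 8 min after H2O2 addition. Prx2 is coupled to TGR-driven NADPH oxidation through glutathione, in phosphate buffer pH 7.4.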
* marks the source's active call; other numbers are inactive results; ? = inconclusive; · = no result given; & = joins results of further samples; [ ] = another dose, or the depositor's remark. Potency is the fitted concentration of half-maximal effect. The list is partial (hit frequency here may not be typical).

Every second line gives: SmPrx2 inh | LT uptake inh
CCOC(=O)CCN1C(=O)[C@H]2[C@H]3[C@H](O)[C@H](O)C/C(=N/OC[C@@H](O)COCc4ccco4)[C@@H]3CC[C@@H]2C1=O
→ · | 8%[8 µM]
Cc1cc(C)nc(NC(=O)c2cnc3sccn3c2=O)n1
→ >57 | 2%
COc1cccc(C(=O)Cn2c(Br)nc3c2c(=O)n(C)c(=O)n3C)c1
→ >57 | 1%
CCC(C)N(CCNC(=O)CC1Oc2ccccc2NC1=O)C1CCCCC1 (centres undefined)
→ >57 | -19%
Cc1ccc(F)cc1NC(=O)c1cccc2nccnc12
→ >57 | -12%
COc1cc(CO)cc(Br)c1OCc1cccnc1
→ >57 | ?
Cc1cc(Cl)ccc1N=Cc1c(O)n(C)c(=O)n(C)c1=O
→ >57 | -7%
CC(=O)N1CCN(c2nc3cc4c(cc3nc2NS(=O)(=O)c2ccccc2)OCCO4)CC1
→ >57 | 19%
CCOC(=O)CSc1ccc2nnc(-c3ccncc3)n2n1
→ >57 | 15%
C[C@@H]1NC(=O)[C@@H](C)COC(=O)[C@H](C)NC(=O)[C@@H](C)COC1=O
→ · | -8%[8 µM]
CCN(CC)CCNC(=O)c1c(O)c2cc(OC)c(OC)cc2[nH]c1=O
→ >57 | -22%
CCOc1ccc(-n2nc(C(=O)NCCOC)c3ccccc3c2=O)cc1
→ >57 | -5%
O=C1CC[C@H](N2C(=O)c3ccccc3C2=O)C(=O)N1
→ >57&>57&>57 | -7%
O=C(CN1CCCC1)Nc1ccc(Oc2ccc(NC(=O)CN3CCCC3)cc2)cc1
→ >57 | ?
COc1ccc(-c2cc3n(n2)CCc2nc4ccccc4n2-3)cc1
→ >57 | -4%
C=CCOc1nc(N(C)C)nc(N(C)C)n1
→ >57 | -5%
CN(C1CCCCC1)S(=O)(=O)c1ccc(-n2cnnn2)cc1
→ >57 | -7%
CCCCN(C(=O)CNC(=O)c1ccco1)C(C(=O)NC1CCCCC1)c1ccc(OC)cc1OC (centres undefined)
→ >57 | -6%
CCOC(=O)N1CCN(Cc2nc3c(c(=O)n(C)c(=O)n3C)n2Cc2cccc(C)c2)CC1
→ >57 | ?
Cc1ccc2c(c1)cc(CN(Cc1ccccc1)C(=O)N(C)C)c1nnnn12
→ >57 | 4%
Cc1cc(NC(=O)CCC(=O)N(c2ccccc2)C(C(=O)NCC2CCCO2)c2cccnc2)no1 (centres undefined)
→ >57 | 4%
CC(CC(=O)O)NCC1COc2ccccc2O1 (centres undefined)
→ >57 | -15%
COc1ccc(N)c(OC)c1
→ · | 3%
CC[C@@]12CCCN3CCc4c(n(c5ccccc45)C(=O)C1)[C@H]32
→ >57&>57&>26 | -4%[8 µM]
NC(CC(=O)O)c1cccc(OCc2ccccc2)c1 (centres undefined)
→ >57 | 3%
O=C(CN(Cc1ccccc1F)S(=O)(=O)c1ccc(Cl)cc1)NCCCO
→ >57 | 2%
c1ccc(Cn2ncc3c(NCc4ccco4)ncnc32)cc1
→ >57 | 1%
O=C(O)CCCCCNC(=O)c1ccncc1
→ >57 | 0%
O=C(C1CCCN(Cc2ccncc2)C1)N1CCc2ccccc2C1 (centres undefined)
→ >57 | -5%
c1nc(NCCN2CCOCC2)c2sc3nc(N4CCOCC4)c4c(c3c2n1)CCC4
→ >57 | ·
CCc1cccc(NC(=O)CCS(=O)(=O)c2cccc3nonc23)c1
→ >57 | -9%
CCOc1ccc(Cn2c(=O)oc3ccc(C)cc32)cc1OC
→ >57 | -7%
COc1cc(/C=C/c2ccccc2)oc(=O)c1
→ · | 2%
Cc1cccc(OCCOCCN2CCOCC2)c1C
→ >57 | -5%
O=C1CC(c2ccc(Cl)c(Cl)c2)CC(O)=C1C=NCCN1CCNCC1 (centres undefined)
→ · | -5%
C[C@H](CCC(=O)O)[C@H]1CC[C@]2(C)[C@@H]3C(=O)C[C@H]4C(C)(C)[C@@H](O)CC[C@]4(C)[C@H]3C(=O)C[C@@]12C
→ >11 | ?
COC(=O)CSc1nnc(CNC(=O)Cc2ccccc2)n1-c1ccccc1OC
→ >57 | 0%
CCOc1ccccc1C1CC(=O)NC2=C1C(=O)CCC2 (centres undefined)
→ >57 | 11%
CC1(C)Cc2c(c(=S)nc(-c3ccccc3)n2CCO)CO1
→ >57 | 10%
CCOc1cc2[nH]c(=S)n(CCCN3CCOCC3)c(=O)c2cc1OCC
→ >57 | -10%

Compound profiles, from the list above. Order of values: SmPrx2 inh, LT uptake inh
Record of O=C(C1CCCN(Cc2ccncc2)C1)N1CCc2ccccc2C1 (centres undefined) : >57, -5%
Record of c1ccc(Cn2ncc3c(NCc4ccco4)ncnc32)cc1 : >57, 1%
Record of CCOc1ccccc1C1CC(=O)NC2=C1C(=O)CCC2 (centres undefined) : >57, 11%
Record of C[C@H](CCC(=O)O)[C@H]1CC[C@]2(C)[C@@H]3C(=O)C[C@H]4C(C)(C)[C@@H](O)CC[C@]4(C)[C@H]3C(=O)C[C@@]12C : >11, ?

Remaining list, next part
Every second line gives: SmPrx2 inh | LT uptake inh
O=Nc1c(-c2c(O)[nH]c3ccccc23)[nH]c2ccccc12
→ >57&>57 | ?
COc1ccc(CN/C(C)=C(/C#N)C(N)=O)cc1OC
→ >57 | -10%
Cc1occc1C(=O)N1CCCc2ccccc21
→ >57 | -9%
COc1cc(C(O)c2nc3ccccc3n2C)cc(OC)c1OC (centres undefined)
→ · | -1%
Cc1c(C(=O)NCc2ccccc2)oc2ccc(S(=O)(=O)N3CCC4(CC3)OCCO4)cc12
→ >57 | -26%
C=COCCn1c(-c2nonc2N)nc2ccccc21
→ · | -15%
O=c1c2cnn(-c3ccccc3)c2nc(-c2ccco2)n1-c1ccccc1
→ >57 | ?
COc1ccc(OC)c2[nH]c(=O)c(CCNC(=O)c3ccc(S(=O)(=O)N(C)C)cc3)cc12
→ >57 | -9%
O=C(Oc1ccccc1C(=O)N1CCOCC1)c1ccc(Br)cc1
→ · | -3%
c1ccc(-n2c(Cc3cn4ccsc4n3)nnc2N2CCOCC2)cc1
→ >57 | -6%
CCSc1nnc(NC(=O)CSc2nc3c(c(=O)n2-c2ccccc2)SCC3)s1
→ >57 | -13%
CCCCc1ccc(C2C(C#N)=C(N)SC(N)=C2C#N)s1
→ · | ?
Cc1ccc(N2CCN(C(=O)CNS(=O)(=O)c3ccc(Br)s3)CC2C)cc1 (centres undefined)
→ >57 | -8%
CCC(C(=O)Nc1ncccn1)(C(F)(F)F)C(F)(F)F
→ >57 | -2%
CC(=O)N(C)C1(c2nnnn2CCOC(=O)Nc2ccc(Cl)cc2)CCCCC1
→ >57 | 2%
O=c1[nH]c2cc3c(cc2cc1CN(Cc1ccccc1)Cc1nnnn1Cc1ccco1)OCCO3
→ >57 | ?
COc1cccc(Cn2c(=O)c(-c3ccccc3)nc3cnc(OC)nc32)c1
→ >57 | ?
CCCn1c(SCC(=O)N2CCCCC2)nnc1-c1ccco1
→ >57 | 3%
COc1ccccc1CN1C(=S)SC(C)(C)C1NO (centres undefined)
→ >57 | ?
N#Cc1nc(COc2ccc(Cl)cc2)oc1N1CCCC1
→ >57 | -26%
C/C(=N\O)C(=O)NCc1ccncc1
→ >57 | 2%
O=C(Cn1cc(C(=S)N2CCOCC2)c2ccccc21)N1CCOCC1
→ >57 | 9%
COc1ccc(Oc2ncc3nc(CCc4ccccc4)c(=O)n(CCC#N)c3n2)cc1
→ >57 | ?
O=C(Nc1ccc2c(c1)OCCO2)C1CCN(c2nnnn2-c2ccccc2)CC1
→ >57 | ?
CCOc1nonc1C(=N)/C(C(C)=O)=C(\C)O
→ >57 | 3%
CC1CCCCN1C(=O)c1cc(-c2ccc(Cl)c(Cl)c2)on1 (centres undefined)
→ >57 | -12%
O=C(Cc1c(O)c2ccccc2[nH]c1=O)NC1CCCCCC1
→ >57 | 3%
CN(c1ccccc1)S(=O)(=O)c1ccc(C(=O)Nc2nnc(-c3ccc(F)cc3)o2)cc1
→ >57 | 0%
Cc1ccc2nc(NC(=O)C3CCN(S(=O)(=O)c4cccc5nsnc45)CC3)sc2c1
→ >57 | ?
COCCn1c(C(C)C)nc2oc3ccccc3c(=O)c2c1=O
→ >57 | 16%
N#Cc1nc(Cc2ccccc2)oc1NCCc1ccccc1
→ >57 | -6%
Cn1c(=O)c2c(nc(N3CCOCC3)n2CCCNC2=NCCC2)n(C)c1=O
→ >57 | -6%
COc1ccc(NC(C)=O)cc1NC(=O)CCn1c(=O)sc2ccccc21
→ >57 | 6%
O=C(Cc1ccc(Br)cc1)N1CCN(Cc2ccccc2)CC1
→ >57 | -13%
O=C(CN1CC(c2ccccc2)CC1=O)Nc1ccc2c(c1)OCO2 (centres undefined)
→ >57 | -3%
CCNc1ncc2ncc(=O)n(C3CC3)c2n1
→ >57 | 0%
COC(=O)C1=C(C(=O)c2ccccc2)C(c2ccc(O)c(OC)c2)n2nnnc2N1 (centres undefined)
→ >57 | 3%
COC(=O)[C@@]1(Cc2ccc(OC)cc2)[C@H]2c3cc(C(=O)N4CCCC4)n(CCc4ccc(OC)c(Br)c4)c3C[C@H]2CN1C(=O)c1ccccc1
→ >57 | ?
CC(C)C[C@@H](CC(=O)N[C@H](CC(=O)N[C@@H]1CCCC[C@H]1C(=O)N[C@H](CC(=O)N[C@@H](CCC(=O)O)CC(=O)O)CC(C)C)C(C)C)NC(=O)[C@@H]1CNCC[C@H]1N
→ >57 | -18%
O=S(=O)(Cc1ccccc1)NCc1ccccn1
→ >57 | -5%
COC(=O)c1ccc(Cl)c(NC(=O)CSc2ncn[nH]2)c1
→ >57 | ·
Cc1ccc(S(=O)(=O)C2(C(=O)N3CCCCCC3)CC2)cc1
→ >57 | -5%
NS(=O)(=O)c1ccc(CCNC(=O)c2cccnc2)cc1
→ >57 | -3%
NC(N)=N[C@H](CCC(=O)O)C(=O)O
→ >57 | 13%
O=C(c1ccc(Cl)cc1Cl)C1(n2cncn2)Oc2ccccc2C1O (centres undefined)
→ >57 | -2%
O=S(=O)(NCCCCCNS(=O)(=O)c1ccccc1)c1ccccc1
→ >57 | -14%
Cc1ccccc1CS(=O)(=O)Cc1ccc(C(=O)NCc2ccccn2)o1
→ >57 | -4%
CCn1c(SCC(=O)N2CCCc3ccccc32)nnc1-c1ccco1
→ >57 | 4%
CCN(C(=O)CSc1nc2nc(C)cc(C)n2n1)c1cccc(C)c1
→ >57 | 5%
CCn1c(=O)c(C(=O)NCc2ccc(OC)c(OC)c2)c(O)c2ccccc21
→ >57 | 1%
CCC(c1ccccc1)c1nc(-c2ccccn2)no1 (centres undefined)
→ · | -4%
NC(=O)N/N=C/c1ccc([N+](=O)[O-])o1
→ · | 0%
Cc1nnc(SCc2ccc(F)cc2)s1
→ >57 | -7%
COC(=O)c1ccc(CSc2nc(-c3ccccc3)cs2)o1
→ >57 | -18%
COc1ccc(OC)c(S(=O)(=O)N(C)CC(=O)N2CCN(c3ccc(F)cc3)CC2)c1
→ >57 | -14%
O=c1c2ccccc2nnn1CSc1nnc2sc3ccccc3n12
→ >57 | -7%
O=c1[nH]c(CN2CCN(Cc3ccc4c(c3)OCO4)CC2)nc2ccccc12
→ >57 | -13%
COC(=O)C1CC1C(NC(=O)[C@@H]1CCCN1)c1ccccc1 (some centres undefined)
→ >57 | ?
COc1cccc(C(=O)NC2=NCCS2)c1OC
→ >57 | 10%
Cc1cc(NC(=O)c2cc3ccccc3o2)cc(C)c1OCC(=O)N1CCOCC1
→ >57 | -18%

New compounds follow:
Every second line gives: SmPrx2 inh | LT uptake inh
Cc1ccc(-c2cc(C(=O)Nc3cc(C)ccc3C)[nH]n2)c(O)c1
→ >57 | -4%
CCc1cccc(C)c1NC(=O)c1cc(C)oc1C
→ >57 | 3%
CCCCNC(=O)c1sc(=S)n2c1[nH]c(=O)c1ccccc12
→ >57 | -19%
COc1ccccc1NC(=O)CS(=O)(=O)c1cccc2nsnc12
→ >57 | 0%
O=C(Nc1ccncc1)c1cc([N+](=O)[O-])ccc1Cl
→ · | 25%
Cn1c(C(=O)NCc2ccccn2)cc2c(=O)n3ccccc3nc21
→ >57 | 5%
Nc1nc(CN2CCN(c3ccccn3)CC2)nc(Nc2ccc(Cl)cc2)n1
→ >57 | -12%
Nc1c(S(=O)(=O)c2ccccc2)c2nc3ccccc3nc2n1/N=C/c1cccc(O)c1
→ >57 | -4%
Cc1ccc(-c2nnc(N3CCN(C(=O)CSc4ncn[nH]4)CC3)c3ccccc23)cc1
→ >57 | -4%
COc1ccc2cc3cc(C(=O)Nc4ccccc4N4CCN(C)CC4)oc3nc2c1
→ >57 | -2%
CCN(CC)CCNC(=O)C1c2cc(OC)c(OC)cc2C(=O)N2CCc3ccccc3C12 (centres undefined)
→ >57 | 11%
COc1cc(OC)cc(-n2nc(C(=O)N3CCC4(CC3)OCCO4)c3ccccc3c2=O)c1
→ >57 | 3%
COc1cccc(C(c2nnnn2CCc2ccccc2)N2CCN(c3ccccc3)CC2)c1OC (centres undefined)
→ >57 | ?
COc1ccccc1-c1nnc(SCC(=O)Nc2c(Cl)cccc2Cl)o1
→ >57 | 20%
COc1ccc(CNCC(=O)N2CCC3(CC2)OCCO3)cc1
→ ? | -6%
Cc1cccc(OCC(=O)Nc2ccc3c(c2)OCO3)c1C
→ >57 | ?
O=C(NC1CC2CCC1C2)c1ccc(CN2CCOCC2)cc1 (centres undefined)
→ >57 | -7%
CCOC(=O)c1cc(NC(=O)NCc2ccco2)c(C)nc1C
→ >57 | -24%
COc1cc(C(C#N)N2CCOCC2)ccc1O (centres undefined)
→ >57 | -16%
Cc1cccc(CNc2ccnc(-c3ccc(C(=O)N(C)C)cc3)n2)c1
→ >57 | 2%
